Screening results from PubChem BioAssay.
HSD17B inh: qHTS Assay for Inhibitors of HSD17B4, hydroxysteroid (17-beta) dehydrogenase 4 | 3-hydroxyacyl-CoA dehydrogenase type-2 (Homo sapiens), Q99714 | 75,000 compounds, 7.6% hits | recombinant HSD17B10, NADH fluorescence kinetic; many of its hits are not listed in these tables | Potency, µM (series often up to 57.1 µM), without a hit: at the top dose activity change, negative = inhibition, most hits filed as inhibitors; active = well fitted inhibition curve with a large enough effect; inconclusive = small, poorly fitted or top-dose-only effect; inactive = no such curve, though single readings can be large or run the other way;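 also: the protocol describes HADH2 (HSD17B10) and not the HSD17B4 of the title; nearly all actives have a fitted effect of over 70% in size; most hits overshoot -100% by far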
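20 nM HADH2, pH 9.0 Tris/Tween; cpd preinc 15 min RT; start w/ 1 mM NAD+ + 90 uM b-hydroxybutyryl-CoA; kinetic fluor ex360/em450 q30s x 4 min; delta last-first.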
* = called active by the depositor; ? = inconclusive; & = joins results of further samples; [ ] = another dose, or the depositor's remark. % is scaled to controls: 0 for no effect and ±100 for the full control effect; potency is read from the fitted curve at half-maximal effect. A portion of the library; rates above refer to the full screens.

SMILES | HSD17B inh
COc1ccc(CN2CCN(C(=O)CC(C)C)CC2)cc1OC | 8%
N#CC1=C(N)Oc2n[nH]c(-c3ccncc3)c2C1c1ccsc1 (stereo not drawn) | -22%
Cc1cc2c(nc1C)CCCN2C[C@@H](O)CN1CCN(C)CC1 | -9%[11.4 µM]
COC(=O)[C@@H]1C[C@H]1[C@@H](NC(=O)c1cnccn1)c1ccccc1 | 10%
CC(=O)Nc1cccc(OC(=O)c2ccoc2C)c1 | -2%
CC1=Nc2ccccc2NC(=O)C1Sc1nnc(C)s1 (stereo not drawn) | 22%
COC(=O)CC1SC(=O)NC1=Nc1ccc(C)cc1 (stereo not drawn) | -1%
CC(C)OC(=O)CSc1nnc(-c2ccc(Cl)cc2)n1N | 3%
O=C(O)CSCCC(=O)Nc1ccc(F)cc1 | 5%
CCCCn1c(CNC(=O)CCC)nc2ccccc21 | 8%

By substructure: those above with a halogen
SMILES | HSD17B inh
CC(C)OC(=O)CSc1nnc(-c2ccc(Cl)cc2)n1N | 3%
O=C(O)CSCCC(=O)Nc1ccc(F)cc1 | 5%

(more compounds)
SMILES | HSD17B inh
NC(=O)c1sc2nccc(Nc3ccccc3)c2c1N | 25µM*
COc1cc(NC(=O)c2ccc3c(c2)OCO3)c2ncccc2c1 | 25µM*
Cc1cc(C)c(OCC(=O)Nc2cccc(O)c2)cc1C | 1%
CCCn1c(NCc2ccc(N(C)C)cc2)nc2ccccc21 | -5%
COc1cccc(NC(=O)N2CCC(C(N)=O)(N3CCCCC3)CC2)c1 | 6%
CCCCCn1c(=O)[nH]c2cc(C(=O)NCCN3CCOCC3)ccc2c1=O | ?
COc1ccccc1NC(=O)c1cc2ccccc2o/c1=N\O | 7.9µM*
CC(=O)c1ccc(N2CCN(C(=O)c3ccc(NC(=O)C4CCCO4)cc3)CC2)cc1 (stereo not drawn) | -11%
CCOc1ccccc1OCCCC(=O)Nc1ccc(OC)nc1 | 3%
COCc1nc(-c2cc(Br)ccc2OC)no1 | 0%
COc1cc(NC(=O)c2ccco2)c(OC)cc1NC(=O)CSc1nnc(-c2cccs2)n1C | ?
CCOC(=O)N1CCN(C(=O)CN(c2ccc(C)c(C)c2)S(=O)(=O)c2ccccc2)CC1 | -4%
CCC(C)NC(=O)c1ccccc1NS(=O)(=O)c1ccc(OC)c(OC)c1 (stereo not drawn) | 32µM*
Cn1c(=O)c2[nH]c(C3CCCC3)nc2n(C)c1=O | 2%&-4%
Cc1cc(CNC(=O)C(C)Cc2ccccc2)nn1C (stereo not drawn) | 13%
CCOc1ccccc1NC(=O)CC1Nc2ccccc2NC1=O (stereo not drawn) | 32µM*
Cc1ccc(C)c(C(=O)N(Cc2nc(-c3ccc(Cl)cc3)no2)C(C)C)c1 | -2%
CCOC(=O)CCc1c(C)c2ccc(OCC(=O)N(CC)CC)c(C)c2oc1=O | 25µM*
N#CC1(c2c(O)nc3n(c2=O)CCCS3)CCCCC1 | -25%
CCc1[nH]nc2c1C1(CCN(C(=O)OCc3ccccc3)CC1)C(C#N)=C(N)O2 | 11%
CC(C)(C)NC(=O)C(c1ccccc1)N(C(=O)c1csnn1)C1CC1 (stereo not drawn) | 4%
CN(C)Cc1c(O)ccc2[nH]cnc12 | -10%
CCN(CC)S(=O)(=O)c1ccc2c(c1)nc(CCC(=O)OCc1c(C)noc1C)n2C | -4%
CC(C)(C)C(=O)Cn1c(=O)n(CC2CCCO2)c(=O)c2ccccc21 (stereo not drawn) | -3%
Cc1c(C#N)c2ccccc2n1CC(=O)NCCc1c[nH]c2ccccc12 | 0%
N#Cc1nc(COc2ccc(Br)cc2)oc1N1CCCCCC1 | 3%
CCCCC(=O)Oc1ccccc1C(=O)O | -11%
CC(C)(C)NC(=O)CSc1nnc(NC(=O)CCn2cnc3ccccc3c2=O)s1 | 4%
COC(=O)N1CC=CC1(C)C(=O)NCC1CC1 (stereo not drawn) | -7%
CCOc1ccc(C(=O)Nc2c3c(nn2C(C)(C)C)CSC3)cc1OCC | -3%

Quoted from the listing.
HSD17B inh, `CC(=O)Nc1cccc(OC(=O)c2ccoc2C)c1` : -2%
HSD17B inh, `CCOC(=O)CCc1c(C)c2ccc(OCC(=O)N(CC)CC)c(C)c2oc1=O` : 25µM*

Additional results follow.
SMILES | HSD17B inh
CC(=O)Nc1ccc(NC(=O)c2cc(C)nn2-c2ccccc2)cc1 | 3%
O=C(Cc1ccccc1)Nc1cccc(N2CCCC2)c1 | -9%
Cc1ccc2oc(Nc3nc(C)cc(C)n3)nc2c1 | 4%
CCC1CCCCN1CCCn1c(=S)[nH]c2ccccc2c1=O (stereo not drawn) | 11%
CN(C)c1ccc(N=Cc2ccco2)cc1 | -9%
Nc1nc(N)c2[nH]c(CNc3ccc(C(=O)O)cc3)nc2n1 | 4%[11.4 µM]
Cc1cc(C)cc(C(=N)c2ccccc2Cc2cccc3ccccc23)c1 | 3%[11.4 µM]
Cc1nn(C)c(C)c1CN(C)C(=O)c1cc2n(n1)C(C(F)(F)F)CC(c1cccs1)N2 (stereo not drawn) | 9%
Cn1c(=O)c2c(nc(NCCCO)n2CCc2ccccc2)n(C)c1=O | 8%
Cc1cc(NS(=O)(=O)c2ccc(NC(=O)COc3ccccc3Cl)cc2)no1 | 2%
Cc1ccc(-c2cc3nc4c(c(=O)n3[nH]2)CCCC4)cc1 | 7.9µM*
CSc1nnc(-c2ccco2)c(-c2ccco2)n1 | ?
Cc1ccccc1N(Cc1nnc2n1CCCCC2)C(=O)Nc1ccccc1 | 1%
Cn1c(=O)c2c(nc(NC(Cc3ccccc3)C(=O)O)n2Cc2ccccc2)n(C)c1=O (stereo not drawn) | 6%
CSc1nnc(-c2ccc(S(=O)(=O)N3CCOCC3)cc2)n1CC1CCCO1 (stereo not drawn) | 25µM*
COc1cc(-c2nnc(SCC(=O)N3CCCC3)o2)cc(OC)c1OC | -17%
O=C(COC(=O)C1CCCCC1C(=O)N1CCc2ccccc21)NCc1ccco1 (stereo not drawn) | -24%
C=C(C)c1cccc(C(C)(C)NC(=O)Nn2cnnc2)c1 | 6%
CCc1ccc(NC(=O)CSc2nnc(Cn3c(=O)sc4ccccc43)n2C)cc1 | -6%
COC(=O)c1c(C)[nH]c(C)c1C(=O)c1ccccc1Cc1ccccc1 | -11%

Structural class, those above containing an NH in an aromatic ring.
SMILES | HSD17B inh
N#CC1=C(N)Oc2n[nH]c(-c3ccncc3)c2C1c1ccsc1 (stereo not drawn) | -22%
CCCCCn1c(=O)[nH]c2cc(C(=O)NCCN3CCOCC3)ccc2c1=O | ?
Cn1c(=O)c2[nH]c(C3CCCC3)nc2n(C)c1=O | 2%&-4%
CCc1[nH]nc2c1C1(CCN(C(=O)OCc3ccccc3)CC1)C(C#N)=C(N)O2 | 11%
CN(C)Cc1c(O)ccc2[nH]cnc12 | -10%
Cc1c(C#N)c2ccccc2n1CC(=O)NCCc1c[nH]c2ccccc12 | 0%
CCC1CCCCN1CCCn1c(=S)[nH]c2ccccc2c1=O (stereo not drawn) | 11%
Nc1nc(N)c2[nH]c(CNc3ccc(C(=O)O)cc3)nc2n1 | 4%[11.4 µM]
Cc1ccc(-c2cc3nc4c(c(=O)n3[nH]2)CCCC4)cc1 | 7.9µM*
COC(=O)c1c(C)[nH]c(C)c1C(=O)c1ccccc1Cc1ccccc1 | -11%

(listing goes on)
SMILES | HSD17B inh
Cc1[nH]nc(N=Cc2c(O)n(C)c(=O)n(C)c2=O)c1-c1ccccc1 | 2%
O=C1C=C(NCC2CCCO2)C2(CCCCC2)O1 (stereo not drawn) | 4%
COC(=O)c1c(C)cc(C)n2c1nc1ccccc12 | 20µM*
CCOC(=O)c1[nH]c(C)c(C(=O)N(C)C)c1C | 5%
COC(=O)C1=C(N)n2c(s/c(=C\c3cccnc3)c2=O)=C(C(=O)OC)C1c1cccnc1 (stereo not drawn) | -2%
N#Cc1c(NC(=O)CSC2=NCCS2)sc2c1CCCC2 | -3%
O=C(NC1=NCCS1)c1ccc2c(c1)C(=O)N(Cc1ccco1)C2=O | -3%
CCOC(=O)c1c(C)n(C)c2ccc(OCC(O)CN(CC)CC)cc12 (stereo not drawn) | -1%
Cc1cc(O)c(C(C)C)cc1N=Cc1ccccc1O | -3%[11.4 µM]
COc1ccc(OC)c(NC(=O)CC(Cc2ccccc2OC)C(=O)O)c1 (stereo not drawn) | -1%
CCOc1ccc(C2/C(=C(\O)c3c(C)[nH]c(C(=O)OC)c3C)C(=O)C(=O)N2CCN(C)C)cc1 (stereo not drawn) | 3%
Cc1cccc2cc(COC(=O)C(C)C)c(=O)[nH]c12 | -17%
COC(=O)c1c(C)n(-c2ccc(OC)cc2)c2ccc(O)cc12 | 20µM*
Cc1ccc2nsnc2c1S(=O)(=O)N1CCN(CCc2ccccc2)CC1 | -8%
CCC/C=C(\CCC)C(NC(=O)OCC(C)C)c1ccc(C(=O)OC)cc1 (stereo not drawn) | 12%
Cn1cccc1C(=O)NC(=O)COC(=O)c1ccccc1O | ?
Cc1cc(N2C(=O)C(=O)/C(=C(/O)c3ccc(F)cc3)C2c2ccc(Cl)cc2)no1 (stereo not drawn) | 0%
Cc1nnc(NC(=O)c2ccc(-c3cccc(C(F)(F)F)c3)o2)s1 | 11%
O=C(Nc1ccccc1)N1CCC(C(=O)N(Cc2ccco2)Cc2cccs2)CC1 | 0%
Cc1ccc([N+](=O)[O-])c(C)c1 | -1%
COc1cccc(C2N(c3ccc(Cl)c(Cl)c3)C(=O)C3CCCN32)c1OC (stereo not drawn) | 7%
Cc1ccccc1CN(c1ccc(C(=O)N2CCCC2)cc1)S(C)(=O)=O | 1%
O=C(NCCCN1CCOCC1)c1cc2cc(Br)ccc2oc1=O | -8%
CC(=O)Nc1ccc(S(=O)(=O)NCc2ccc(C(=O)NCc3ccc4c(c3)OCO4)cc2)cc1 | 10%
O=C(CSc1nccn1-c1ccc(F)cc1)NCc1ccc2c(c1)OCO2 | 2%
CCn1c(SCC(=O)N2CCCc3ccccc32)nc2ccccc2c1=O | 4%
COc1ccc(C2CC(=O)N3CN(c4ccccc4F)CSC3=C2C#N)cc1OC (stereo not drawn) | 25µM*
CC(=O)Nc1cccc(-c2nc3ccc(NC(C)=O)cc3[nH]2)c1 | 25µM*
CCOC(=O)c1nnn(-c2nonc2N)c1-c1ccc(OCC)cc1 | -19%
O=C(O)C1CCC(=O)N1C1c2ccccc2Oc2ccccc21 (stereo not drawn) | 10%
COc1cc(OC)c(C2=NOC(C(=O)O)C2)cc1Cl (stereo not drawn) | -1%
CSc1ccc(S(=O)(=O)Nc2cccc(F)c2)cc1 | -11%
COc1ccc(C)cc1NC(=O)CNC(=O)Cn1ccc2ccccc2c1=O | 1%
CC(CN1CCOCC1)C(=O)O (stereo not drawn) | -1%
CN(Cc1nc(-c2ccncc2)no1)S(=O)(=O)c1ccccc1 | 0%
CCCCC(=O)N1CCCC(c2nc3c(nnn3Cc3cc(C)ccc3C)c(=O)[nH]2)C1 (stereo not drawn) | 2%
CCOC(=O)CC(=O)CSc1ccc2nnc(-c3ccc(C)cc3)n2n1 | -18%
Cc1cccc(Cn2c(N3CCN(c4ccccc4)CC3)nc3c2c(=O)n(C)c(=O)n3C)c1 | ?
COC(=O)[C@@]1(Cc2ccc(F)cc2)[C@H]2c3cc(C(=O)N(C)C)n(Cc4ccc(OC(F)(F)F)cc4)c3C[C@H]2CN1C(=O)c1ccccc1 | 2%
Nc1nonc1C(=O)NCCc1ccccc1 | -1%
O=C(OCC(=O)N1CCN(c2ccccc2)CC1)c1ccco1 | 15%
CCOC(=O)N1CCN(Cc2ccccc2Cl)CC1 | -2%
COC(=O)c1ccc(CSc2nccn2C)cc1 | -25%
N#Cc1nc(-c2ccccc2F)oc1N1CCCC1 | 7.9µM*
O=C(COc1ccc2c3c(c(=O)oc2c1)CCC3)NC1CCCCC1 | 32µM*
COc1cc2c3c(c1)C1(C(=O)N3C(C)(C)C=C2C)C(C#N)=C(N)Oc2cc(O)ccc21 (stereo not drawn) | 8%
CCc1ccccc1-n1c(SCC(=O)N2CCCC2)nnc1-c1ccccn1 | 0%
COc1ccc2[nH]c(C(=O)O)c(CCNC(C)=O)c2c1 | 25µM*
COc1cccc(OC)c1OCCNCC1COc2ccccc2O1 (stereo not drawn) | -15%
CCOC(=O)c1cc(=O)cc(C(=O)OCC)o1 | 17%

The listing continues.
SMILES | HSD17B inh
Cc1cccc(NC(=O)c2cnc3sccn3c2=O)c1 | 32µM*
CCc1nnc(NC(=O)CSc2nnc(Cc3ccccc3)n2-c2ccc(OC)cc2)s1 | -4%
O=C(CCCn1c(=S)[nH]c2ccccc2c1=O)N1CCOCC1 | 7%
CCOCCCNC(=O)CCS(=O)(=O)Cc1ccc(C)cc1 | 5%
CCCC(=O)c1ccc(N2CCN(S(=O)(=O)c3ccc(C)cc3)CC2)c(F)c1 | 3%
COc1ccc2nc3oc(C(=O)NC4CCN(Cc5ccccc5)CC4)cc3cc2c1 | 3.2µM*
COc1cccc(CN2CCN(C(=O)CC(C)C)CC2)c1 | 4%
O=C(O)c1ccc(Br)c(S(=O)(=O)N2CCCC2)c1 | 4%
CCOc1cc(C2C(C(=O)N3CCCCC3)=C(C)NC3=C2C(=O)CC(C)(C)C3)ccc1O (stereo not drawn) | -19%
COc1cc(CN2CCN(c3cccc(C)c3C)CC2)cc(OC)c1O | 4%
COc1ccc(OCCCN2CCCC(C)C2)cc1 (stereo not drawn) | 2%
CC1(C)Cc2ccccc2C(N)=C1C#N | -11%
CCOc1ccccc1C(=O)Nn1c(C2CCC2)nc2ccccc2c1=O | 6%
Cc1ccccc1C(=O)Nc1ccccc1 | 7%
O=C(N[C@@H](c1ccccc1)[C@@H]1C[C@H]1C(=O)NCc1ccccn1)OCc1ccccc1 | -7%
Cc1cccc(NC(=O)COc2ccc(Br)cc2)n1 | -3%
COc1ccc(Cl)c(NCCC(=O)O)c1 | -15%
COc1cccc(-c2nc(NCc3cccs3)c3ccccc3n2)c1 | -5%
